Screens deposited in PubChem BioAssay by Fisher Drug Discovery Resource Center.
NPYLR7 agonist – mosquito NPYLR7 agonism. HEK293T NPYLR7/Galpha15, GCaMP6s calcium fluorescence. hit rate 0.15% among 270,000. activation, % at 10 µM; in the data active means activation above about 40%;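 further: 0% = vehicle and 100% = reference agonist at the receptor; some compounds past the cut are filed as inactive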
NPYLR7 agonist max-min – further read-out of NPYLR7 agonist, marked with its call; activation, %; measured here: Max-Min RFU normalised activation; some inactives read as strong as hits;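 span of the calcium signal over five minutes; 0% = vehicle and 100% = native peptide agonist; compound fluorescence can raise it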
* marks the source's active call; other numbers are inactive results.

SMILES	NPYLR7 agonist	NPYLR7 agonist max-min
Clc1ccc(C2Oc3ccccc3C3CC(c4cccnc4)=NN32)cc1 (stereo not drawn)	18	15
CCOC(=O)C1(CC2CC2)CCNCC1	4	3
Cc1cccc2c1NC1(CCN(C(=O)c3ccco3)CC1)NC2=O	1	6
CC(O)(c1cccnc1)c1nc(/C=C/c2ccccc2)cs1 (stereo not drawn)	5	1
O=C(c1csc(Nc2ccc(OC(F)F)cc2)n1)N1CCN(C(=O)c2ccco2)CC1	17	4
C/C=C\C(=O)Nc1cc(C)nn1-c1nc(-c2ccc(Cl)cc2)cs1	-7	-11
CCOC(=O)c1c(NC(=O)CSc2nnc(C)s2)sc2c1CCC2	0	0
Cc1ccc(/C=C2N=C(/C=C/c3ccc([N+](=O)[O-])cc3)OC\2=O)o1	-3	-8
OCCc1cnn(-c2ccc(CN3CCCC3)cc2)c1	3	-9
C=C1CC2C=C(NC(C)=O)CC(C1)C2 (stereo not drawn)	-5	-7
O=C1NC(=NN=Cc2cccnc2)SC1Cc1ccc(SC(F)F)cc1 (stereo not drawn)	2	52
CCCCN(CC(=O)N(CCc1c[nH]c2ccccc12)Cc1ccccc1)S(=O)(=O)c1ccc(NC(C)=O)cc1	10	23
CC1(C)CC(=O)C=C(Nn2cnc3scc(-c4ccccc4)c3c2=O)C1	7	4
Cc1cccc2sc(C(=O)Nc3ccc(S(=O)(=O)N(C)C)cc3)c(Cl)c12	2	4
N#Cc1c(NC(=O)CSc2nnc(-c3c[nH]c4ccccc34)o2)sc2c1CCCC2	8	6
Cc1ccc(Oc2ccc(NC(=O)Cn3ccnc3)cc2)cc1	-2	-3
COc1ccc(-c2cc3nc(C)cc(N4CCCCCC4)n3n2)cc1OC	5	3
CC(C)NC(=O)N(CCN(C)C)Cc1c(-c2ccccc2)noc1N1CCCCC1C (stereo not drawn)	13	17
CCOCCCN(CC(=O)N(CCc1ccc(OC)c(OC)c1)Cc1ccc(C)s1)C(=O)Nc1ccc(C)c(Cl)c1	13	21
CCCCC(NC(C)=O)C(=O)N1CCC(c2ccc(F)cc2)CC1 (stereo not drawn)	-2	-8
Cc1nc(NC(=O)Cn2nc(C)c([N+](=O)[O-])c2C)c(Br)cc1Br	-9	-15
O=C(NCC1Cc2cc(F)ccc2O1)c1cc(Cl)ccc1F (stereo not drawn)	20	27
COc1ccc(/C=C/c2ncc3ccccn23)cc1	-5	-5
COC(=O)c1c(C)[nH]c(C)c1-c1nc(-c2ccccc2)c(C)[nH]1	15	9
O=C(/C=C/c1cscn1)OC(c1ccccc1C(F)(F)F)C(F)(F)F (stereo not drawn)	2	0
(more compounds)
SMILES	NPYLR7 agonist	NPYLR7 agonist max-min
Cn1ncc2c(=O)n(CC(=O)Nc3ccc(Br)cc3Br)cnc21	11	5
O=C(COc1ccccc1Br)c1ccc(O)cc1O	11	18
COc1ccc(/C=C\C(=O)NCc2cc(-c3ccc(OC)c(OC)c3)on2)cc1OC	0	0
N#Cc1c(NC(=O)COCCOCC(=O)Nc2sc3c(c2C#N)CCC3)sc2c1CCC2	1	-1
Cc1sc2nc(CCN)nc(NCC(C)Oc3cccnc3)c2c1C (stereo not drawn)	-3	-6
CCCNC(=O)CSc1n[nH]c(C2CCCO2)n1 (stereo not drawn)	2	1
CC(=O)Nc1cc(S(=O)(=O)NC2CC2c2ccccc2)ccc1C (stereo not drawn)	10	9
Cc1[nH]c(=O)ccc1C(=O)N1CCN(Cc2ccc(Cl)s2)CC1	1	-4
CCCCC(CC)CNC(CC(=O)Nc1cccnc1)C(=O)O (stereo not drawn)	-1	-1
CN1CCC(CN2CCC3(CC2)CCN(C(=O)CC2CCCC2)CC3)CC1	23	10
CC(C)c1cc(CN(C)c2nc(-c3cccnc3)nc3c2cnn3C)no1	-3	-3
CC1CCCN(C(=O)CSc2nnc(-c3cccs3)n2-c2ccccc2)C1 (stereo not drawn)	19	6
Clc1ccc(C(Cn2ccnc2)OCc2ccc(Sc3ccccc3)cc2)c(Cl)c1 (stereo not drawn)	2	1
COc1ccc(Cl)cc1CN(C)C(C)c1nc(N)c2c(C)c(C)sc2n1 (stereo not drawn)	9	8
C=CCn1nnc(NC(=O)c2ccc(CC)cc2)n1	-2	-3
COCCOCC(=O)N1CCN(c2nccc(-c3ccc(N4CCOCC4)cc3)n2)CC1	33	21
CC12COC3(C(=O)N4CCCCC4)CC1CCC32C (stereo not drawn)	24	22
COc1ccc2c(c1)CCc1cc(CCC(=O)NCCCn3ccnc3)n(-c3ccc4ncsc4c3)c1-2	26	18
CCc1c(C)nc(-n2nc(C)cc2C)n(Cc2cccc3ccccc23)c1=O	2	0
Oc1nc(Nc2ccccc2)sc1C=C1C=Nc2ccccc21	-5	-9
Cc1cc(Oc2ccc(C(=O)O)cn2)ccc1C(C)C	4	2
CCOC(=O)c1cccnc1Oc1cccc(NC(=O)/C(=C/c2ccccc2)c2ccccc2)c1	-7	-12
O=S(=O)(Nc1ccccc1F)c1ccc(F)c(F)c1F	0	-2
O=C(c1ccc(-c2ccc([N+](=O)[O-])cc2Cl)o1)N1CCN(S(=O)(=O)c2ccc(F)cc2)CC1	11	13
CCc1ccccc1OC1CN(C(=O)Cc2nn[nH]n2)C1	6	7

Given comma-delimited: part of the list above.
smiles,NPYLR7 agonist,NPYLR7 agonist max-min
CN1CCC(CN2CCC3(CC2)CCN(C(=O)CC2CCCC2)CC3)CC1,23,10
CC(C)c1cc(CN(C)c2nc(-c3cccnc3)nc3c2cnn3C)no1,-3,-3
CC1CCCN(C(=O)CSc2nnc(-c3cccs3)n2-c2ccccc2)C1 (stereo not drawn),19,6
Clc1ccc(C(Cn2ccnc2)OCc2ccc(Sc3ccccc3)cc2)c(Cl)c1 (stereo not drawn),2,1
COc1ccc(Cl)cc1CN(C)C(C)c1nc(N)c2c(C)c(C)sc2n1 (stereo not drawn),9,8
C=CCn1nnc(NC(=O)c2ccc(CC)cc2)n1,-2,-3
COCCOCC(=O)N1CCN(c2nccc(-c3ccc(N4CCOCC4)cc3)n2)CC1,33,21
CC12COC3(C(=O)N4CCCCC4)CC1CCC32C (stereo not drawn),24,22
COc1ccc2c(c1)CCc1cc(CCC(=O)NCCCn3ccnc3)n(-c3ccc4ncsc4c3)c1-2,26,18
CCc1c(C)nc(-n2nc(C)cc2C)n(Cc2cccc3ccccc23)c1=O,2,0
Oc1nc(Nc2ccccc2)sc1C=C1C=Nc2ccccc21,-5,-9
Cc1cc(Oc2ccc(C(=O)O)cn2)ccc1C(C)C,4,2
CCOC(=O)c1cccnc1Oc1cccc(NC(=O)/C(=C/c2ccccc2)c2ccccc2)c1,-7,-12
O=S(=O)(Nc1ccccc1F)c1ccc(F)c(F)c1F,0,-2
O=C(c1ccc(-c2ccc([N+](=O)[O-])cc2Cl)o1)N1CCN(S(=O)(=O)c2ccc(F)cc2)CC1,11,13
CCc1ccccc1OC1CN(C(=O)Cc2nn[nH]n2)C1,6,7

Continued:
SMILES	NPYLR7 agonist	NPYLR7 agonist max-min
O=C(NCc1ccc(Cl)cc1)N1CCc2sccc2C1	13	1
COc1ccc(-c2cc(C3CC3)nc(SCC(=O)O)c2C#N)cc1	0	-1
CC(C)(C)c1ccc(-c2ccnc(N3CCN(C(=O)CC4NC(=O)NC4=O)CC3)n2)cc1 (stereo not drawn)	34	23
Cc1ccc(Oc2ccc(OCC(=O)N3CCNC(=O)C3)cc2)cc1	-9	-12
O=C(CSc1nc(=O)n(CCN2CCOCC2)c2c1CCCC2)Nc1cccc(C(F)(F)F)c1	3	12
O=C(NC1=NCCS1)c1c(-n2cccc2)sc2c1CCCC2	1	7
CSc1ccccc1NC(=O)c1nnn(-c2nc3c(s2)CCCC3)c1C	3	1
Cc1cnc(CNc2nccc(CCC(F)(F)F)n2)cn1	27	16
CCCC(CCC)C(=O)Nc1c(C)nc2scc(C)n2c1=O	10	2
Cc1cc(C(=O)CN2CCCC2c2cccs2)c(C)n1-c1c(C)n(C)n(-c2ccccc2)c1=O (stereo not drawn)	1	3
O=C(NC1CCCC[C@H]1N(Cc1ccc(Cl)cc1)C(=O)c1ccccc1)C1CCCN(C(=O)Cc2ccccc2)C1 (stereo partly drawn)	3	8
CC(=O)OC(C(=O)NC1CC2CCC(C1)N2Cc1ccc2c(c1)OCO2)c1ccccc1 (stereo not drawn)	1	9
O=C(CN(Cc1ccc(F)c(F)c1)C1CC1)N1CCSC1c1ccccc1Cl (stereo not drawn)	-1	5
Cc1cc(C(=O)Nc2ccc(Oc3cccc(C(N)=O)c3)cc2)on1	1	31
Cn1nc(NC(=O)c2ccco2)c2c1NC(=O)CC2c1cccs1 (stereo not drawn)	-12	-18
CCc1nnc(NC(=O)c2cc(Cl)c(OCC(N)=O)c(OC)c2)s1	1	1
O=C(Nc1ccc(F)cc1F)C1CC2CCCC(C1)C2=O (stereo not drawn)	1	0
COc1cccc2cc(/C=C/C(=O)NCc3ccc4c(c3)OCO4)oc12	1	-2
CCOC(=O)c1ccc(NC(=O)CSc2ccc(-c3sc(-c4cccs4)nc3C)nn2)cc1	-12	-12
O=C(CCCn1c(=O)oc2cc([N+](=O)[O-])ccc21)Nc1ccccn1	5	0
COC(=O)c1ccc(C(=O)OC)c(NC(=NS(=O)(=O)c2ccc(F)cc2)c2ccccc2)c1	-4	-12
CCOC(=O)c1cc(OC)c2cccc(CN3CCCCCC3(C)C(=O)NCC(C)C)c2c1 (stereo not drawn)	1	0
Cc1cccc(NC(=O)CSc2nc(N)c(NC(=O)c3ccc(Br)o3)c(=O)[nH]2)c1	6	3
CC(C)NC(=O)C(C)N1CCc2onc(-c3ccc(C(F)(F)F)cc3)c2C1 (stereo not drawn)	135*	138*
Cc1nc2c(=O)n(C(C)c3ccccc3)nc(-c3cccs3)c2s1 (stereo not drawn)	3	-1
The list goes on:
SMILES	NPYLR7 agonist	NPYLR7 agonist max-min
O=C(CSc1ncnc2sccc12)NNC(=O)c1ccc(Br)s1	-3	-9
O=C(Nc1nc(-c2cc(Cl)ccc2Cl)cs1)c1ccc([N+](=O)[O-])s1	-6	-6
Cc1ccc(F)cc1NCC(=O)Nc1ccc2c(c1)OCCO2	-1	-3
CN(C)c1ccc(NC(=O)c2cccc(F)c2)cc1CN(C(=O)c1cccs1)C1CCCCC1	7	10
COc1cccc(C2CC(c3cc(C)ccc3C)=NN2C(=O)CN2CCN(Cc3ccccc3)CC2)c1 (stereo not drawn)	20	20
CCc1nnc2n1N=C(c1ccc3c(c1)OCCO3)CS2	-5	-5
Cc1ccc(CN(C)C(=O)CN2CCc3cc(S(N)(=O)=O)ccc32)cc1	19	11
CCc1nc2ccc(C(=O)NCCN3CCCC3)cn2c1N(C)CCCc1ccccc1	18	9
COc1cccc(-c2cc(C(=O)NCCN(C)C)nc3cc(-c4ccccc4)nn23)c1	-11	-6
CCOC(=O)c1c(NC(=O)c2cccnc2Cl)c(-c2cccc(F)c2)cn1C	-1	-4
Cn1c(SCC(=O)NC2CCCC2)nnc1C(F)(F)F	0	-1
S=C(NNc1nnnn1-c1ccccc1)Nc1ccccc1	-6	-7
CSc1ccc(NC(=O)N2CCN(c3nc(-c4cccc(F)c4)nc(C)c3Cc3ccccc3)CC2)cc1	-2	2
CCOC(=O)N1CC(C)N(C(=O)OCC)CC1C (stereo not drawn)	3	1
COCc1nc(N2CCN(C(=O)c3ccc(C(C)(C)C)cc3)CC2)c2c3c(sc2n1)CCCC3	-11	-6
CCn1cnnc1CNC(=O)C(C)(C)c1ccc(F)cc1	17	8
Cc1nnc(NC(=O)NC2CCNCC2)s1	-3	-2
C[C@H]1[C@@H]2[C@@H](O)C([C@H](C)C(=O)N(C)CCC#N)CC[C@@]2(C)CC[C@@H]1NC(=O)Cc1ccccc1 (stereo partly drawn)	-4	-13
Cc1nccn1-c1cc(N2CCN(C(=O)CC(C)C)CC2)ncn1	-17	-22
Cc1nn(C(=O)COc2ccccc2[N+](=O)[O-])c(C)c1Sc1ccc([N+](=O)[O-])cc1	1	7
COC(=O)Cn1c(CSc2nccc(C)n2)cc(=O)n2c3ccccc3nc12	5	5
COc1nc2ccccc2cc1/C=C/C(=O)O	0	-2
CN(Cc1ccc(N2CCCCC2)cc1)Cc1cc2c(cc1O)OCO2	0	3
CC(=O)C(C)n1c(=O)c2c(nc3n(-c4ccc(Cl)cc4)c(-c4ccccc4)cn23)n(C)c1=O (stereo not drawn)	4	0
CN(C)c1nc2c(c(=O)n(C)c(=O)n2C)n1Cc1ccccc1	11	10
Continuation:
SMILES	NPYLR7 agonist	NPYLR7 agonist max-min
COc1cccc(CSc2nnc(-c3ccc(F)cc3)n2-c2ccccc2C)c1	-14	-19
CCOc1cc(/C=C(\C#N)c2nn(CCO)c(N)c2C#N)cc(I)c1OCC	0	-1
CCN(CC)C(=O)CN1CCN(C(=O)c2sc3ccc(F)cc3c2C)CC1	-2	-2
CN(Cc1ccccn1)C(=O)c1c[nH]c2c(F)c(Cl)ccc2c1=O	-6	-7
CCN(CC(=O)N1CCN(C(=O)c2cccs2)CC1)CC1COc2ccccc2O1 (stereo not drawn)	4	2
CC(=O)c1cc2c(cc1NS(=O)(=O)c1ccc3c(c1)NC(=O)C(C)O3)OCO2 (stereo not drawn)	-8	-6
CCOc1ncccc1C(=O)Nc1sc2c(c1C#N)CCCC2	6	2
COc1cc(C)nc(N/N=C/c2cc(Cl)cc(Cl)c2OC)n1	0	-1
CCN(CC(=O)N1CC(=O)N(c2ccc(Cl)cc2)C1)C(=O)c1cc(OC)cc(OC)c1	16	19
COc1ccc(CCOC(=O)[C@@H]2CCCN2C(=O)c2cccnc2Oc2ccccc2)cc1OC	20	6
CCOC(C)C(=O)Nc1nc2c(s1)CC(c1ccccc1)CC2 (stereo not drawn)	4	1
N#Cc1ccc(N2CCCN(CC(O)c3cccc(C(F)(F)F)c3)CC2)cc1 (stereo not drawn)	4	1
CCCC(c1ccccn1)N(C)C(=O)/C=C/c1c(C)nn(C)c1Cl (stereo not drawn)	-2	-1
CC1CN(c2cc(Cl)nc(SCC(=O)NCCN3CCCC3)n2)CCN1C(=O)CC(C)(C)C (stereo not drawn)	15	18
CCOC(=O)c1nc2ccccc2nc1N1CCCN(C(=O)c2cc(C)oc2C)CC1	8	2
COCCCN1COc2ccc3c(=O)c(Oc4cccc(OC)c4)c(C(F)(F)F)oc3c2C1	-9	-11

This is a subset (hit frequency here may not be typical).
